Compound activity as filed in PubChem.
UUG fidelity: modulators of start codon recognition fidelity in yeast. activity score, % at 18.7 µM. 350,000 compounds, 0.13% hits. AID 602363. S. cerevisiae UUG-firefly luciferase reporter, luminescence/redox ratio;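 active = replicate mean at a twofold rise or more, about +100% in these data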;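 note: firefly luciferase made from a UUG start codon reports start codon fidelity; reporter light over untreated wells divided by growth signal over untreated wells; some hits fall short of that in this replicate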
Env fusion inh: inhibitors of HIV Env-mediated cell fusion | HeLa-JRFL Env/CEM21 cell fusion, luciferase | inhibition, % at 12.3 µM | 360,000 compounds, 1.1% hits | AID 651610;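 active = mean replicate inhibition score of at least 50 and every replicate individually at or above 50; inconclusive = only one of the two criteria met; inactive = mean below 50 and not all replicates reaching 50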;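 note: 0% = plate neutral controls and 100% = maraviroc near 300 nM; one replicate is shown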
MT1-MMP act inh: MT1-MMP (human) activation inhibition; AID 651647; 360,000 compounds, 0.061% hits; HT1080 RFP-PRO-GFP cells, GFP/RFP ratio fluorescence, overnight; percent of plate control window, DMSO zero; GFP/RFP ratio change, % at 20 µM; P50281;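 active = GFP/RFP ratio change of at least 30% with cell ATP level not reduced by more than half and red fluorescence within 50% of control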; note: strong numbers were not always called active
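Compound: 20 µM single dose, 1% DMSO / System: HT1080 RFP-PRO-GFP cells / Controls: DMSO and RFP-L50D-GFP cell wells / Read-out basis: GFP/RFP fluorescence ratio / Schedule: overnight compound exposure at 37 °C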
PABP polyA inh: PABP-poly(A) binding inhibition; P11940; PABP-poly(A) RNA binding, fluorescence polarization; inhibition, % at 35 µM; 290,000 compounds, 1% hits;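 active = 50% or more with normal probe brightness, or confirmed in later tests; inconclusive = above 50% with abnormal brightness, or retests that disagree; inactive = below 50% or failed in later tests; about a fifth of its hits are not listed in these tables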;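 note: calls also rest on retests at 20 µM and on dose response follow-up; controls were probe without protein and protein plus probe with vehicle; some compounds called inactive have numbers as strong as hits; many hits fall short of the cut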
Target sequence (P11940 whole entry, looked up): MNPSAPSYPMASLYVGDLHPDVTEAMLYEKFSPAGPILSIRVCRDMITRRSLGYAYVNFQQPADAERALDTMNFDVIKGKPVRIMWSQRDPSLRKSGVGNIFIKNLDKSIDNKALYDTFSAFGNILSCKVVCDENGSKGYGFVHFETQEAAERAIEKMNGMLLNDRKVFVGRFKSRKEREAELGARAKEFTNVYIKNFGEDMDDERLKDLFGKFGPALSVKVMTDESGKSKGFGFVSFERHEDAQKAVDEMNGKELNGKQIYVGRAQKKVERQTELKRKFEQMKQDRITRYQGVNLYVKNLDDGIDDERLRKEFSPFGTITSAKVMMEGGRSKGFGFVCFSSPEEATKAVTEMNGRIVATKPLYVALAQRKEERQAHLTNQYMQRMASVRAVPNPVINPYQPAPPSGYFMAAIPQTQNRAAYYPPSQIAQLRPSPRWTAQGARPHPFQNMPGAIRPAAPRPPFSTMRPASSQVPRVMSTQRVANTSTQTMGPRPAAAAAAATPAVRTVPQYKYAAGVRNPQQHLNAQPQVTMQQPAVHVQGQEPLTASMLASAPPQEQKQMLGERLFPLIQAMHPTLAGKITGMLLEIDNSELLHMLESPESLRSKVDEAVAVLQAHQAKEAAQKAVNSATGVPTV
eIF4H inh: inhibitors of RNA binding by human eIF4H | eIF4H fluorescence polarization binding assay | inhibition, % at 35 µM | 290,000 compounds, 0.94% hits;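 active = 50% or more with normal probe brightness, or confirmed in later tests; inconclusive = above 50% with abnormal brightness, or retests that disagree; inactive = below 50% or failed in later tests; about a fifth of its hits are not listed in these tables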;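 note: calls also rest on retests at 20 µM and on dose response follow-up; 0% = protein and probe with vehicle and 100% = probe without protein; strong numbers were not always called active; many hits fall short of the cut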
Rce1 inh: inhibitors of yeast Ras-converting enzyme; AID 2563; yeast membranes, quenched prenylated peptide cleavage fluorescence; Q03530; 290,000 compounds, 0.27% hits; calls only;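 active = fall in fluorescence gain of 50% or more versus controls, with final raw signal at or below 3038400; inconclusive = same 50% fall but final raw signal above 3038400; inactive = fall in fluorescence gain under 50%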;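 note: plate controls were neutral control wells for no effect and wells lacking membranes for full effect; tested at 10 µM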
CSC inhib: blocks cancer stem cells; AID 2717; cancer stem cell-like cells viability, luminescence; 300,000 compounds, 1.1% hits; inhibition, % at 7.5 µM;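 active = mean at 75% or more and at least half the replicates too; inconclusive = mean and replicates disagree; tested in HMLE shEcad cells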;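 note: 0% = median of negative and 100% = median of positive control wells; the first replicate is given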
MT1-MMP act inh RFP: also measured in MT1-MMP act inh; calls as there; RFP signal change, %; measured here: RFP expression control read;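 0 = vehicle wells; hits needed this value within 50% of zero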
Starred values were filed as active, the others as inactive; i = inactive; ? = inconclusive; · = no result given.

No.	Compound	UUG fidelity	Env fusion inh	MT1-MMP act inh	MT1-MMP act inh RFP	PABP polyA inh	eIF4H inh	Rce1 inh	CSC inhib
1	CC=Cc1cc(OC)c2c(c1)C(C)C(c1ccc(O)c(OC)c1)O2 (stereo not given)	-14	18	1	-3	·	·	·	·
2	COc1ccc(NC(=O)Nc2cc(C)ccc2OC(F)F)c(OC)c1	-16	-50	5	3	-2	8	i	·
3	Cc1c(/C=C(\CC(=O)O)c2nc3ccccc3s2)cc(C#N)n1C	·	2	2	3	3	-2	i	4
4	CC(NS(=O)(=O)OCC(Cl)(Cl)Cl)c1ccc(C(C)(C)C)cc1 (stereo not given)	1	15	-1	-11	5	-2	i	?
5	CCOC(=O)N1CCN(C(=O)c2cccc(-n3c(=S)[nH]c4cc(Cl)ccc4c3=O)c2)CC1	-13	18	4	1	4	2	i	9
6	O=C(N/N=C\c1ccc([N+](=O)[O-])o1)C1COc2ccccc2O1 (stereo not given)	·	-21	-3	-6	-13	17	i	9
7	CCc1nc2c(OCCc3cccc(OC)c3)cccn2c1N(C=O)Cc1ccccc1	-6	?	-6	0	·	·	·	·
8	Cc1ccc(CS(=O)(=O)Cc2ccc(C(=O)NCc3cccnc3)o2)cc1	-1	·	2	0	-4	1	i	16
9	CC(=O)c1ccc(N2CCN(C(=S)NCCCN(C)C)CC2)cc1	·	0	5	3	0	-4	i	-1
10	NC(CCc1ccccc1)c1csc(NC(=O)NCCc2ccccc2)n1 (stereo not given)	-16	21	2	-3	·	·	·	·
11	COc1cccc(NC(=O)COc2cccc3c2CCNC3=O)c1	-4	-13	-1	1	·	·	i	-7
12	COc1ccc(-c2cc(C(=O)Nc3ccc(F)cc3F)no2)cc1	-4	-31	-2	3	-8	0	i	6
13	COc1ccc(CCNc2nnc(Sc3nnnn3-c3ccccc3)s2)cc1OC	-9	-222	9	-9	0	-8	i	-3
14	CC1(C(=O)NS(=O)(=O)c2cccc(C#N)c2)CCN1C(=O)c1cccc2ccccc12 (stereo not given)	13	-9	0	2	·	·	·	·
15	O=C(Nc1cccc(-n2cnnn2)c1)c1ccco1	-13	-8	3	4	-11	-7	i	7
16	CCc1ccccc1S(=O)(=O)Cc1ccc(C(=O)N2CCN(c3ccccn3)CC2)o1	-18	-11	-2	-1	0	12	i	8
17	O=C(CN1C(=O)c2ccccc2S1(=O)=O)NCCC1=CCCCC1	-18	·	4	6	-13	-1	i	-5
18	O=C(/C=C/c1ccccc1Cl)NNC(=O)c1cccs1	·	-9	0	3	-8	-10	i	-3
19	CCOc1ccc(C2C(C#N)=C(N)N(N(C)C)C3=C2C(=O)CCC3)cc1 (stereo not given)	-8	16	-1	2	8	2	i	-10
20	COC(=O)NNC(=O)COc1ccc(Cl)cc1	-20	·	0	3	-8	-2	i	15
21	CCOC(=O)CN(C)S(=O)(=O)c1ccc(-c2cc(C(=O)OC)sc2C(F)(F)F)cc1	9	-5	6	-3	-10	-3	i	4
22	O=c1cnc2cc([N+](=O)[O-])ccc2[nH]1	·	-9	1	2	-5	-12	i	-11
23	CCc1ccc2c(CN3CCN(S(=O)(=O)c4ccc5c(c4)OCCO5)CC3)cc(=O)oc2c1	-10	-5	2	-3	-2	-4	i	-8
24	Cc1ccc(N2CCN(C(=O)c3cccc([N+](=O)[O-])c3)CC2)cc1Cl	-25	-8	-1	-4	-10	4	i	-5
25	CC1=NNC(=O)C1Cc1ccc(F)cc1 (stereo not given)	-13	6	2	0	7	11	i	-19
26	C#CCOCCOCCOCCNc1nc(N2CCN(C(=O)[C@H](CCCCN)n3cc(CC(C)O)nn3)CC2)nc(N2CCN(C(=O)[C@H](CCCCN)n3cc(CC(C)O)nn3)CC2)n1 (stereo not given in full)	8	4	4	-2	·	·	·	3
27	Cc1ccc(NC2CC(=O)N(c3ccc(N4CCCCC4)cc3)C2=O)cc1 (stereo not given)	-13	·	4	0	8	7	i	1
28	CSc1ncc(Cl)c(C(=O)Nc2nnc(SC/C=C/c3ccccc3)s2)n1	-25	-21	2	-5	8	8	i	37
29	CC(=O)N/N=C/c1cc2c(cc1[N+](=O)[O-])OCO2	·	-5	2	8	-6	32	i	-6
30	O=C(Nc1ccccc1)N1CCOCC1	-17	-85	5	6	-6	-14	i	16
31	CC[N+]1=C(C)C(C)(C)c2cc(C)ccc21	2	26	38	57	-19	?	i	?
32	Cc1cc(O)ccc1-c1cnc2ccccc2n1	-11	-17	-3	-2	-2	-3	i	-14
33	CCCCNC(=O)c1c(CSc2ccccc2)noc1C(=O)NCc1ccccc1	-6	7	-6	0	14	-3	i	-15
34	COc1ccc(C(=O)NC(=S)N(C)Cc2ccccc2)cc1Br	·	-34	6	-3	-6	-1	·	-4
35	COc1ccccc1NS(=O)(=O)c1cc(NC(=O)c2[nH]c(C)c(C(C)=O)c2C)ccc1N1CCOCC1	·	-275	8	-5	8	7	i	-23
36	CNC(=O)/C(C#N)=C/c1c(N2CC(C)OC(C)C2)nc2ccccn2c1=O (stereo not given)	·	-23	0	2	10	-1	i	-4
37	CCCCN1C(=O)NC2NC(=O)NC21 (stereo not given)	-22	·	4	2	-16	4	i	-3
38	COc1cc(/C=C(/C#N)C(=O)NCc2ccccc2)cc(OC)c1OC	-1	-1	·	·	-1	1	i	-12
39	CN(C)c1ncc([N+](=O)[O-])cc1C(F)(F)F	-18	-7	-2	1	4	25	i	7
40	Cc1ccc(-n2cnc3scc(-c4cccs4)c3c2=O)cc1	·	·	-9	-2	-8	8	i	3
41	O=C(N/N=C/c1ccc2c(c1)OCO2)C1CC1	-15	-1	-1	1	-6	4	·	10
42	O=C(CNS(=O)(=O)c1ccccc1)NCc1ccccn1	-7	-5	-1	5	-2	-4	i	-11
43	O=C(CC1Sc2ccccc2NC1=O)Nc1cccc(-c2nnc3n2CCCCC3)c1 (stereo not given)	-22	-15	-1	5	·	·	i	-15
44	CCc1nc2nc(C)c(NS(=O)(=O)c3ccc(Cl)s3)c(=O)n2[nH]1	-4	18	3	7	9	0	·	-7
45	CC1(C)CC(O)(CNCc2ccc3c(c2)OCO3)CCO1 (stereo not given)	-13	41	-2	7	-8	10	i	-4
46	O=C(CCc1nc2ccccc2c(=O)[nH]1)NCc1cccc(Cl)c1	·	·	3	4	2	-2	·	36
47	Cc1ccc(C(=O)Nc2cccnc2)cc1NC(=O)c1ccco1	-6	·	-1	2	7	-3	i	-3
48	COC(=O)/C(=C\Nc1ccc(Oc2ccc(F)cc2F)nc1)NC(=O)c1ccccc1	-18	-9	1	1	2	-1	i	-10
49	CCOC1=NC(C(=O)O)c2ccccc2/C(=C(/C)Cl)N1 (stereo not given)	-7	·	5	4	-4	-3	i	-13
50	C=CCN1C(=O)C2C(C(=O)NC)C3C=CC2(O3)C1C(=O)NCc1ccc(OC)cc1 (stereo not given)	15	·	-10	-1	-3	-3	i	·
51	Cc1cccc(C)c1Nc1nnc(SCC(=O)c2ccc3c(c2)NC(=O)CO3)s1	1	1	-1	2	0	3	i	2
52	Cc1ccc(CNC(=O)COc2ccc(S(=O)(=O)NC(C)C)cc2)cc1	·	-30	4	0	9	6	i	-10
53	COc1ccc2nc(NC(=O)NC3CCCCC3)sc2c1	·	-21	-1	2	6	14	i	9
54	N#CC1C(=O)NC(=O)C(C#N)C12CCCc1sccc12 (stereo not given)	-9	14	-5	3	·	·	·	·
55	O=c1c2cnn(-c3ccccc3Cl)c2ncn1Cc1cccnc1	-14	·	0	-3	-12	-1	i	8
56	Cc1cccc(N2CCN(C(=O)CCS(=O)(=O)c3ccc4c(c3)NC(=O)C(C)S4)CC2)c1C (stereo not given)	-4	20	-2	-28	-9	-17	i	-6
57	O=C(/C=C/c1ccc2c(c1)OCO2)N1CCN(c2ccc(Cl)cc2)CC1	·	3	5	6	24	3	i	4
58	CS(=O)(=O)c1sc(C(=O)NC(=O)Nc2cccc(C(F)(F)F)c2)c2c1C=CCC2	·	2	-4	2	-5	3	i	-7
59	OC(c1ccc(CN2CCCCC2)cc1)c1ncc(-c2ccccc2)[nH]1 (stereo not given)	-15	-12	1	5	·	·	·	·
60	Cn1c(SCC(=O)c2ccccc2)nnc1-c1ccc(O)cc1	-23	-82	5	4	1	-8	i	-9

Brought forward from above: 2 compounds, then new ones.
No.	Compound	UUG fidelity	Env fusion inh	MT1-MMP act inh	MT1-MMP act inh RFP	PABP polyA inh	eIF4H inh	Rce1 inh	CSC inhib
59	OC(c1ccc(CN2CCCCC2)cc1)c1ncc(-c2ccccc2)[nH]1 (stereo not given)	-15	-12	1	5	·	·	·	·
60	Cn1c(SCC(=O)c2ccccc2)nnc1-c1ccc(O)cc1	-23	-82	5	4	1	-8	i	-9
61	CC(=O)c1c(C)n(CC(=O)NCc2ccc3c(c2)OCO3)c2ccccc12	-7	·	10	-11	5	8	i	1
62	O=[N+]([O-])c1ccc(Cl)c(/C=N/n2c(COc3ccccc3)n[nH]c2=S)c1	-14	·	15	3	2	2	i	60
63	CC(C)Cn1c(N)c(C(=O)COC(=O)c2ccc3c(c2)OCCO3)c(=O)n(C)c1=O	1	35	1	-15	14	-6	i	4
64	CCOC(=O)c1c(C)[nH]c(C(=O)OCC(=O)N(CC(C)C)c2c(N)n(Cc3ccccc3)c(=O)[nH]c2=O)c1C	-6	-4	-38	-12	·	·	i	1
65	Cc1cccc(N(CC(=O)Nc2cccnc2)S(C)(=O)=O)c1	-12	-6	-2	4	-1	13	i	4
66	O=C(CSc1nc2ccccc2o1)N1CCN(S(=O)(=O)c2ccc3ccccc3c2)CC1	·	-29	0	5	-4	-1	i	21
67	CN1CCN(C(=O)CCn2c(=O)c3cccn3c3cccnc32)CC1	-12	-8	-1	-1	-5	4	i	-2
68	Cc1cc(C)cc(C(=O)Nc2ccc(NC(=O)c3cccs3)cc2)c1	-7	42	5	-6	17	10	i	-11
69	COc1ccccc1NCc1cc(=O)oc2c(C)c(O)ccc12	-10	5	1	-8	8	0	i	14
70	CCOC(=O)/C=C(\C)Nc1cc(C)nn1-c1ccccc1	-12	-1	0	4	-6	-1	i	-9

Only part of the results is shown; the hit share may differ from the screen's.
